Screens as filed in PubChem BioAssay.
CSC inhib: blocks cancer stem cells; inhibition, % at 7.5 µM; hit rate 1.1% among 300,000; cancer stem cell-like cells viability, luminescence;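 active means mean at 75% or more and at least half the replicates too; tested in HMLE shEcad cells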;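 further: 0% = median of negative and 100% = median of positive control wells; the first replicate is given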
eIF4H inh: inhibitors of RNA binding by human eIF4H; eIF4H fluorescence polarization binding assay; inhibition, % at 35 µM; hit rate 0.94% among 290,000; AID 2012;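 active means 50% or more with normal probe brightness, or confirmed in later tests; about a fifth of its hits are not listed in these tables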;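 further: calls also rest on retests at 20 µM and on dose response follow-up; 0% = protein and probe with vehicle and 100% = probe without protein; strong numbers were not always called active; many hits fall short of the cut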
Rce1 inh: blocks yeast Ras-converting enzyme; Q03530; yeast membranes, quenched prenylated peptide cleavage fluorescence; calls only; hit rate 0.27% among 290,000;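 active means fall in fluorescence gain of 50% or more versus controls, with final raw signal at or below 3038400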;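 further: plate controls were neutral control wells for no effect and wells lacking membranes for full effect; tested at 10 µM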
Target sequence (Q03530 whole entry, looked up): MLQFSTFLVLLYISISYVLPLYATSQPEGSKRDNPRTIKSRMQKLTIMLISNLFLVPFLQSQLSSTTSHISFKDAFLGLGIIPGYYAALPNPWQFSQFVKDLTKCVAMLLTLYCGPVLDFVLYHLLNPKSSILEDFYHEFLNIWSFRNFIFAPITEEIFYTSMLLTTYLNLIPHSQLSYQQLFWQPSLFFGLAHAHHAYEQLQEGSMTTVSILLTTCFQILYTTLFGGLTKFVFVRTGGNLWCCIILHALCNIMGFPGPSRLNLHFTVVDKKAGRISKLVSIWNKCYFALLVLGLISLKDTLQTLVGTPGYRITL
Env fusion inh: blocks HIV Env-driven cell-cell fusion. inhibition, % at 12.3 µM. HeLa-JRFL Env/CEM21 cell fusion, luciferase. hit rate 1.1% among 360,000;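 active means mean replicate inhibition score of at least 50 and every replicate individually at or above 50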;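 further: 0% = plate neutral controls and 100% = maraviroc near 300 nM; one replicate is shown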
MT1-MMP act inh: MT1-MMP (human) activation inhibition | P50281 | hit rate 0.061% among 360,000 | HT1080 RFP-PRO-GFP cells, GFP/RFP ratio fluorescence, overnight; percent of plate control window, DMSO zero | GFP/RFP ratio change, % at 20 µM;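 active means GFP/RFP ratio change of at least 30% with cell ATP level not reduced by more than half and red fluorescence within 50% of control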; further: strong numbers were not always called active
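Compound: 20 µM single dose, 1% DMSO / System: HT1080 RFP-PRO-GFP cells / Controls: DMSO and RFP-L50D-GFP cell wells / Read-out basis: GFP/RFP fluorescence ratio / Schedule: overnight compound exposure at 37 °C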
Yeast UUG start: yeast start codon fidelity modulation; activity score, % at 18.7 µM; hit rate 0.13% among 350,000; AID 602363; S. cerevisiae UUG-firefly luciferase reporter, luminescence/redox ratio;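 active means replicate mean at a twofold rise or more, about +100% in these data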;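 further: firefly luciferase made from a UUG start codon reports start codon fidelity; reporter light over untreated wells divided by growth signal over untreated wells; some hits fall short of that in this replicate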
PABP polyA inh: PABP-poly(A) binding inhibition | inhibition, % at 35 µM | hit rate 1% among 290,000 | PABP-poly(A) RNA binding, fluorescence polarization | P11940;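 active means 50% or more with normal probe brightness, or confirmed in later tests; about a fifth of its hits are not listed in these tables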;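 further: calls also rest on retests at 20 µM and on dose response follow-up; controls were probe without protein and protein plus probe with vehicle; some compounds called inactive have numbers as strong as hits; many hits fall short of the cut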
eIF4H inh retest: recorded beside eIF4H inh, whose call it bears; inhibition, %; compound at 20 µM; confirmation average;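 mean of two retest wells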
PABP polyA inh retest: recorded beside PABP polyA inh, whose call it bears; inhibition, %; compound at 20 µM; confirmation repeats;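 mean of two retest wells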
MT1-MMP act inh RFP: further read-out of MT1-MMP act inh, marked with its call; RFP signal change, %; measured here: RFP expression control read;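 0 = vehicle wells; hits needed this value within 50% of zero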
The depositor's hits bear a star; i = inactive; . = no result given.

SMILES	CSC inhib	eIF4H inh	Rce1 inh	Env fusion inh	MT1-MMP act inh	MT1-MMP act inh RFP	Yeast UUG start	PABP polyA inh	others
O=C(C[n+]1cc(-c2ccc(Cl)cc2)n2c1CCC2)N1c2ccccc2Sc2ccccc21	-5	-16	i	-2	-11	-8	-5	-6
O=c1oc(-c2ccco2)nc2c1cnn2-c1ccccc1	-14	-7	i	.	-1	9	-12	-7
COc1ccc(NC(=O)c2cc(-c3ccncc3)nc3ccc(Br)cc23)cc1OC	14	9	i	-5	-15	-17	-10	3
Cc1nc2cc(-c3cccc(F)c3)nn2c(C)c1CCC(=O)N1CCN(c2ccccn2)CC1	-16	-2	i	26	2	2	-23	8
Cc1cc2oc(=O)cc(CN(C)Cc3ccccc3F)c2cc1Cl	-1	-8	.	-7	0	-3	-7	6
COC(=O)/C=C/c1ccc2c(c1)OCO2	-5	7	i	3	0	4	-9	-9
CC(=O)NC1CCC(C(=O)O)(c2ccccc2)C1 (stereo unspecified)	5	-4	i	.	5	7	1	5
Cc1ccc(S(=O)(=O)N(CC(=O)NCc2ccco2)C2CCCCC2)cc1	15	-9	i	.	-9	-4	-21	5
COc1ccc(OC)c(NC(=O)CCNS(=O)(=O)c2ccc3[nH]c(=O)oc3c2)c1	-6	10	i	4	-3	-2	26	23
CCc1nc2ccc(C(=O)NCCN3CCOCC3)cn2c1N(C)Cc1ccc(OC)cc1	.	.	.	-11	-5	0	-14	.
Oc1ccc2ccccc2c1CNc1ccc2ccccc2c1	.	.	.	-14	7	4	-19	.
COc1ccccc1N1CC(C(=O)Nc2ccc(S(=O)(=O)N3CCCC3)cc2)CC1=O (stereo unspecified)	-16	.	.	25	5	1	-5	.
Cc1ccc(S(=O)(=O)NC(=O)C2(C)CCN2C(=O)Cc2ccc(-c3ccccc3)cc2)cc1 (stereo unspecified)	.	.	.	9	8	7	1	.
S=c1[nH]cnc2scc(-c3ccc(Br)cc3)c12	30	14	i	26	6	-11	.	-3
CC(Sc1cccc[n+]1[O-])C(=O)Nc1ccc(Oc2ccccc2)cc1 (stereo unspecified)	12	3	i	1	1	-3	-8	-22
Cc1nnc(NC(=O)c2ccc(S(=O)(=O)N(C)c3ccccc3)cc2)s1	.	.	.	-4	-4	0	-12	.
O=C(c1ccco1)N1CCN(CCCCOc2cccc3ccccc23)CC1	16	1	i	0	3	4	-7	-8
CC1CCN(C(=O)C2Cc3ccccc3CN2S(=O)(=O)c2ccc(F)cc2)CC1 (stereo unspecified)	-9	17	i	.	0	-5	1	10
COc1c(F)c(F)c(C(=O)O)c(Nc2ccc(C)cc2C)c1F	-6	-4	i	12	1	1	.	-10
CCCCNCCCCOc1ccccc1	6	-5	i	.	5	6	.	-6
Cc1ccc(-n2nc(C(=O)O)c(O)cc2=O)cc1	-5	-8	i	-1	1	3	.	-4
CCCCNS(=O)(=O)c1ccc2nc(-c3cccnc3)cc(C(=O)NC(C)C)c2c1	0	-1	i	4	3	5	-1	12
CCCc1nc(NC(=O)c2ccccc2)nc(NC(=O)c2ccccc2)n1	-6	-1	i	-2	1	-3	-12	4
O=C(CN1CCN(C2CCCCC2)CC1)c1ccc2cc[nH]c2c1	-4	2	i	41	9	8	-15	6
Oc1cccc(CN2CCCCC2)c1	10	3	i	.	1	-1	.	-8
CSc1nnc(Cn2c(=O)sc3ccccc32)n1-c1ccccc1C	5	.	i	-19	0	3	-10	.
Cc1cccc(NC(=O)CCn2c(=O)oc3ccccc32)c1	-11	-4	i	12	1	-3	-4	1
CN1CCN(c2ccccc2NC(=O)c2ccc(-c3cccc([N+](=O)[O-])c3)o2)CC1	21	-3	i	.	-3	-5	.	-3
CCN(CC)S(=O)(=O)c1ccc(/C=C/C(=O)OCC(=O)N(C(C)C)C(C)C)cc1	-10	-7	i	-2	3	-2	2	7
Cn1c(=O)c2c(O)c([N+](=O)[O-])c(=O)n(C)c2n(C)c1=O	11	6	i	-8	-1	5	-6	-1

Brought forward from above: 7 entries, then new ones.
SMILES	CSC inhib	eIF4H inh	Rce1 inh	Env fusion inh	MT1-MMP act inh	MT1-MMP act inh RFP	Yeast UUG start	PABP polyA inh	others
O=C(CN1CCN(C2CCCCC2)CC1)c1ccc2cc[nH]c2c1	-4	2	i	41	9	8	-15	6
Oc1cccc(CN2CCCCC2)c1	10	3	i	.	1	-1	.	-8
CSc1nnc(Cn2c(=O)sc3ccccc32)n1-c1ccccc1C	5	.	i	-19	0	3	-10	.
Cc1cccc(NC(=O)CCn2c(=O)oc3ccccc32)c1	-11	-4	i	12	1	-3	-4	1
CN1CCN(c2ccccc2NC(=O)c2ccc(-c3cccc([N+](=O)[O-])c3)o2)CC1	21	-3	i	.	-3	-5	.	-3
CCN(CC)S(=O)(=O)c1ccc(/C=C/C(=O)OCC(=O)N(C(C)C)C(C)C)cc1	-10	-7	i	-2	3	-2	2	7
Cn1c(=O)c2c(O)c([N+](=O)[O-])c(=O)n(C)c2n(C)c1=O	11	6	i	-8	-1	5	-6	-1
CCn1c(SCC(=O)N2CCCCC2)nc2c([nH]c3ccccc32)c1=O	.	.	.	3	-4	-1	-1	.
O=C1C2CCCCN2C(=O)N1CCCN1CCN(c2ccc(F)cc2)CC1 (stereo unspecified)	-6	-18	i	2	-2	0	-1	0
Cc1ccc(/C=C(\NC(=O)c2ccccc2)C(=O)N2CCCC2C(=O)O)cc1 (stereo unspecified)	16	-3	i	0	0	5	.	-3
CC(C)NC(=O)N(C)C[C@H]1Oc2c(NC(=O)Cc3ccccc3)cccc2C(=O)N([C@H](C)CO)C[C@@H]1C	-19	.	.	7	-2	0	-2	.
CC(C)NC(=O)NC(=O)COC(=O)c1ccc(F)cc1F	-10	6	i	12	0	4	.	-6
O=C(NCC1CCCO1)c1cccnc1Nc1ccccc1F (stereo unspecified)	-27	-10	.	.	2	1	2	-4
CCC(=O)NCCc1nc2cc(NC(=O)c3cccc([N+](=O)[O-])c3)ccc2n1C	-6	-1	i	-8	0	-1	-16	7
CCN(CC)S(=O)(=O)c1cccc(-c2n[nH]c(=S)n2/N=C/c2ccc(OC)cc2)c1	2	1	i	-19	5	4	.	-12
COc1ccc(C2C3=C(CC(C)(C)CC3=O)N(CC(=O)O)C3=C2C(=O)CC(C)(C)C3)cc1OC	-6	-4	i	10	-1	-1	-16	7
Nc1ncnc2c1ncn2[C@@H]1O[C@H](C(=O)NCc2ccc3c(c2)OCO3)[C@@H](O)[C@H]1O	.	.	.	-24	2	2	-10	.
O=C(NC1CCCCCCC1)c1ccc(Br)o1	-3	8	i	6	-5	0	-15	4
Cc1nc(-c2ccccc2)sc1C1(C)CC(c2ccc([N+](=O)[O-])cc2)=NO1 (stereo unspecified)	3	2	i	-48	2	-3	-20	7
CCC(=O)N1CCc2cc(S(=O)(=O)NC(Cc3ccccc3)C(=O)NC3CCCCC3)ccc21 (stereo unspecified)	.	-1	i	.	8	7	.	33
O=C(NCc1cccnc1)c1ccc(-c2ccccc2[N+](=O)[O-])o1	-9	-6	i	-1	2	0	.	6
O=C1OCCN1CCNCc1cn(-c2ccc(F)cc2)nc1-c1ccccc1Cl	-21	-6	i	-10	0	3	.	5
C=CCOc1cccc(CNn2cn[nH]c2=S)c1	5	0	i	-5	5	3	-26	2
Cc1[nH]c(=O)[nH]c(=O)c1NS(=O)(=O)c1ccccc1	-15	-3	i	-11	2	4	.	13
CCOC(=O)C1(C)CCCCN1C(=O)c1ccccc1OC (stereo unspecified)	.	.	.	2	2	3	3	.
COc1ccc(C(=O)N2CCC(N3CCN(c4ccccc4)CC3)CC2)cc1	-10	-5	i	.	-3	1	.	22
COc1ccc(Cl)cc1NC(=O)CN1CCN(S(=O)(=O)N2CCCCC2)CC1	2	-3	i	9	2	-3	19	-8
C=CC[C@@H](CC(=O)NCCO)C(=O)N[C@H](C)COC(=O)[C@@H](CC=C)Cc1ccc(F)cc1	-11	.	.	-11	4	0	15	.
CC(=O)N1CCc2cc(S(=O)(=O)C(C)CC(=O)NCc3ccco3)ccc21 (stereo unspecified)	.	.	.	8	-3	-1	-21	.
O=C(Nc1ccc(-c2ccccc2)cc1)c1ccco1	-3	-3	i	0	-7	0	-32	5
COC(=O)CCC(=O)Nc1nnc(C(F)(F)F)s1	-12	-8	i	21	-2	5	-25	1
O=C(CSc1nnc(-c2ccco2)o1)c1ccccc1	.	14	i	-34	-2	4	-13	0
COC(=O)C1=C(C)N(Cc2cccnc2)C(=O)/C1=C\c1sccc1C	3	8	i	3	-3	2	-13	6
CC1(C)Cc2ccccc2C(=NCCCCCC(=O)O)N1	.	-1	i	.	.	.	.	-7
COc1ccc(C(=O)/C=C\N2CCOCC2)cc1	19	1	i	.	-3	4	.	3
Cc1ccc(NC(=O)CCc2c(C)nn(-c3ccc(N4CCCCC4)nn3)c2C)cc1F	6	-4	i	-47	.	.	-17	4
Cc1nc(SCC(=O)Nc2nc3ccccc3s2)c(C#N)c(C)c1C	18	-5	i	63*	0	-1	.	0
Cc1ccc(S(=O)(=O)N2CCN(CC(=O)N3CCCC3)CC2)c(C)c1	-19	.	.	9	-2	1	-10	.
Cc1ccc2cc(COC(=O)c3ccncc3)c(=O)[nH]c2c1	-15	-4	i	10	-9	0	-11	48
CCc1ccccc1S(=O)(=O)Cc1ccc(C(=O)NCC2CCCO2)o1 (stereo unspecified)	-15	-4	i	25	3	3	-5	0
COc1cc(C(C)=O)ccc1OCC(=O)N1CCc2ccccc2C1	-9	5	i	-6	0	-1	-1	7
CCNC(=O)CSC1=N/C(=C\c2ccc(O)c(OCC)c2)C(=O)N1c1ccc(OC(F)F)cc1	-1	2	i	3	-88	2	2	-28
CC(=O)Nc1cc2c(cc1NC(=O)c1cnccn1)OCCO2	-5	-10	i	-19	-3	-3	-18	0
COc1ccc(C(=O)NCC(C)(C)N2CCOCC2)cc1S(=O)(=O)NCc1ccc(Cl)cc1	.	.	.	0	3	-3	1	.
COc1ccc(NS(=O)(=O)c2ccc(S(=O)(=O)N3CCCC3)cc2)cc1	3	-6	i	.	4	-9	-1	-8
Cn1cccc1/C=N/NC(=O)c1sc2ccccc2c1Cl	-1	-5	i	.	0	3	4	3
Cc1ccc(C(O)CN2C3=NCCCN3c3ccccc32)cc1 (stereo unspecified)	9	-1	.	.	-1	1	-19	-8
COCCOC(=O)c1c(C)n(C)c2ccc(OC(=O)N3CCOCC3)cc12	-15	17	i	16	8	5	-11	-6
COc1ccc(C2NC3=C(CCC3)C3(C#N)C(OC)(OC)N=C(N)C23C#N)cc1 (stereo unspecified)	0	51	i	.	-12	4	-54	-9	eIF4H inh retest=6;PABP polyA inh retest=6
COC(=O)c1cnc2c(c(C)nn2C)c1OC	-16	0	i	5	0	-3	-13	5
O=C(CCCN1C(=O)c2cccc3cccc(c23)C1=O)NCc1ccco1	-6	5	i	2	-2	-1	.	4
Cc1cc(C)nc(NS(=O)(=O)c2ccc(NC(=O)c3ccc(S(=O)(=O)N4CCOCC4)cc3)cc2)n1	-18	-4	i	.	5	6	.	-2
CSc1nnc(C)c(=O)n1COC(=O)c1ccc(S(=O)(=O)N(C)C)cc1	2	1	i	-4	20	-1	.	0
C=CCn1c(C)cc(C(=O)COC(=O)c2ccc3c(c2)NC(=O)CS3)c1C	13	47	i	5	3	3	-19	12
O=[N+]([O-])c1cc(Cl)c(O)c2ncccc12	.	11	i	-22	9	0	.	5
COc1cccc(/C=N/c2sc(Cc3ccccc3)c(C)c2C(N)=O)c1O	-2	2	i	-49	3	2	-4	-3
